Screening data deposited in PubChem by Broad Institute.
A1 apoptosis 2 = A1 inhibition read as caspase activation | 24,000 tested, under 10 active | AID 2465 | MEF A1-2A-BIM cells, caspase-Glo luminescence, 3 h; percent of clofoctol response, DMSO zero | caspase activation, % (test concentration not listed); in the data active = caspase activation above about 5.9%;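 note: wells of about 30 µL received 50 nL stock; the first replicate is given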
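System: mouse embryonic fibroblasts co-expressing A1 and BIM (A1-2A-BIM), primed for A1 dependence; amount: 2500 cells/well; doses: 50 nL pinned compound; schedule: cells settled overnight, compound exposure 3 h at 37 °C, 5% CO2; detection: Caspase-Glo 3/7 luminescence, 1 h at room temperature; read-out: Caspase-3/7 activation, seen as rise in luminescence signal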
* = called active by the depositor.

SMILES | A1 apoptosis 2
CC(C)NC(=O)Nc1ccc2c(c1)C(=O)N([C@H](C)CO)C[C@H](C)[C@H](CN(C)C(=O)CCCN(C)C)OCCCC[C@H](C)O2 | 1.2
CC(C)NC(=O)N(C)C[C@@H]1Oc2ccc(NC(=O)Nc3cccc4ccccc34)cc2CC(=O)N([C@@H](C)CO)C[C@H]1C | -0.4
COc1ccc(NC(=O)Nc2cccc3c2O[C@@H](CN(C)S(=O)(=O)c2cccs2)[C@@H](C)CN([C@@H](C)CO)C3=O)cc1 | 0.5
C[C@H]1CN([C@@H](C)CO)C(=O)c2cccc(N(C)C)c2O[C@@H]1CN(C)C(=O)Nc1cccc2ccccc12 | -1.1
C[C@H](CO)N1C[C@H](C)[C@H](CN(C)C(=O)NC2CCCCC2)Oc2c(NC(=O)Nc3ccc4c(c3)OCO4)cccc2C1=O | 0.0
COc1ccc(S(=O)(=O)N(C)C[C@H]2OCCCC[C@H](C)Oc3ccc(NC(=O)c4ccncc4)cc3C(=O)N([C@@H](C)CO)C[C@@H]2C)cc1 | 0.5
C[C@@H]1CN([C@H](C)CO)C(=O)Cc2cc(NC(=O)Cn3cnnn3)ccc2O[C@H]1CN(C)S(=O)(=O)c1ccc(Cl)cc1 | -2.5
C[C@H](CO)N1C[C@H](C)[C@@H](CN(C)C(=O)c2ccccc2)OCCCC[C@H](C)Oc2ccc(NC(=O)Nc3ccc4c(c3)OCO4)cc2C1=O | 0.4
C[C@H]1CCCCO[C@@H](CN(C)S(=O)(=O)c2ccccc2)[C@@H](C)CN([C@@H](C)CO)C(=O)c2cc(NC(=O)NC3CCCCC3)ccc2O1 | 0.9
C[C@H]1CN([C@@H](C)CO)C(=O)c2cc(NS(=O)(=O)c3cn(C)cn3)ccc2O[C@H]1CN(C)Cc1ccncc1 | -1.0
C[C@H]1CN([C@@H](C)CO)C(=O)Cc2cc(NS(=O)(=O)c3ccc(Cl)cc3)ccc2O[C@H]1CN(C)Cc1ccc2c(c1)OCO2 | -0.2
C[C@H]1CN([C@@H](C)CO)C(=O)c2cc(NS(=O)(=O)c3ccccc3)ccc2O[C@@H]1CN(C)Cc1ccc(-c2ccccc2)cc1 | 0.4
COc1ccc(NC(=O)Nc2cccc3c2O[C@H](CN(C)Cc2ccc4c(c2)OCO4)[C@@H](C)CN([C@@H](C)CO)C3=O)cc1 | -1.1
C[C@@H]1CCCCO[C@@H](CN(C)C)[C@@H](C)CN([C@@H](C)CO)C(=O)c2cc(N(C)C)ccc2O1 | -0.1
CCO[C@H]1OC(C(=O)NC2CC2)=C[C@@H](C(C)(C)C)[C@@H]1CCCO | 0.4
C[C@H](CO)N1C[C@H](C)[C@H](CN(C)S(=O)(=O)c2cccs2)Oc2ncc(-c3cccc(F)c3)cc2C1=O | 0.6
C[C@@H]1CCCCO[C@@H](CN(C)S(=O)(=O)c2cn(C)cn2)[C@@H](C)CN([C@@H](C)CO)C(=O)c2cc(N(C)C)ccc2O1 | -0.4
C[C@H]1CCCCO[C@@H](CN(C)CC2CCCCC2)[C@@H](C)CN([C@@H](C)CO)C(=O)c2cc(NC(=O)Nc3ccc(C(F)(F)F)cc3)ccc2O1 | 2.0
COc1ccc(S(=O)(=O)Nc2ccc3c(c2)C(=O)N([C@@H](C)CO)C[C@@H](C)[C@@H](CN(C)C(=O)c2ccncc2)OCCCC[C@@H](C)O3)cc1 | -1.3
C[C@@H]1CN([C@@H](C)CO)C(=O)c2cccc(NC(=O)Nc3ccc4c(c3)OCO4)c2O[C@@H]1CN(C)CC1CC1 | -1.0
Cc1ccc(S(=O)(=O)N(C)C[C@H]2Oc3ccc(NS(C)(=O)=O)cc3C(=O)N([C@@H](C)CO)C[C@H]2C)cc1 | -0.6
C[C@@H]1CN([C@@H](C)CO)C(=O)c2cccc(NS(=O)(=O)c3ccccc3)c2O[C@@H]1CN(C)Cc1ccccc1 | 0.6
C[C@@H]1CN([C@@H](C)CO)C(=O)c2cc(NC(=O)Nc3ccc(F)cc3)ccc2O[C@@H](C)CCCCO[C@@H]1CN(C)C(=O)Nc1ccc2c(c1)OCO2 | -1.8
C[C@@H]1CN([C@H](C)CO)C(=O)CCCn2cc(nn2)CO[C@@H]1CN(C)C(=O)c1ccc2ccn(C)c2c1 | -0.2
C[C@@H]1CCCCO[C@@H](CN(C)C(=O)c2ccncc2)[C@H](C)CN([C@H](C)CO)C(=O)c2cc(NC(=O)c3ccccc3)ccc2O1 | -0.5
(next part)
SMILES | A1 apoptosis 2
Cc1ccc(S(=O)(=O)N(C)C[C@H]2Oc3c(NC(=O)Nc4cccc5ccccc45)cccc3C(=O)N([C@H](C)CO)C[C@H]2C)cc1 | 0.6
C[C@H](CO)N1C[C@H](C)[C@H](CN(C)S(=O)(=O)c2ccccc2)OCCCC[C@H](C)Oc2ccc(NS(C)(=O)=O)cc2C1=O | -1.7
COc1ccc(S(=O)(=O)N(C)C[C@@H]2OCCCC[C@H](C)Oc3ccc(NS(=O)(=O)c4cccs4)cc3C(=O)N([C@H](C)CO)C[C@@H]2C)cc1 | 1.3
Cc1ccc(S(=O)(=O)Nc2ccc3c(c2)CC(=O)N([C@H](C)CO)C[C@@H](C)[C@@H](CN(C)S(=O)(=O)c2ccc(Cl)cc2)O3)cc1 | 0.2
C[C@@H]1CCCCO[C@@H](CN(C)S(=O)(=O)c2cn(C)cn2)[C@@H](C)CN([C@@H](C)CO)C(=O)c2cc(NC(=O)C3CCCCC3)ccc2O1 | 0.1
COc1ccc(NC(=O)Nc2ccc3c(c2)CC(=O)N([C@@H](C)CO)C[C@H](C)[C@H](CN(C)S(=O)(=O)c2cn(C)cn2)O3)cc1 | 0.7
Cc1noc(C)c1NC(=O)Nc1ccc2c(c1)CC(=O)N([C@@H](C)CO)C[C@@H](C)[C@H](CN(C)CC1CC1)O2 | 1.6
O=C(O)CCCCCCC(=O)N/N=C/c1cccs1 | -1.0
C[C@H](CO)N1C[C@H](C)[C@@H](CN(C)S(=O)(=O)c2cccs2)OCc2cn(nn2)CCCC1=O | 1.4
CNC[C@@H]1Oc2ccc(NC(=O)Nc3ccccc3)cc2CC(=O)N([C@@H](C)CO)C[C@H]1C | 0.2
C[C@@H]1CCCCO[C@@H](CN(C)Cc2ccccc2)[C@H](C)CN([C@@H](C)CO)C(=O)c2cc(NC(=O)Nc3ccc(F)cc3)ccc2O1 | -0.8
CC(C)NC(=O)N(C)C[C@@H]1Oc2c(NC(=O)c3cnccn3)cccc2C(=O)N([C@H](C)CO)C[C@@H]1C | 0.9
C[C@@H]1CN([C@@H](C)CO)C(=O)Cc2cc(NS(=O)(=O)c3cccs3)ccc2O[C@@H]1CN(C)CC1CC1 | 0.0
CC(C)NC(=O)Nc1ccc2c(c1)C(=O)N([C@H](C)CO)C[C@H](C)[C@@H](CN(C)C(=O)Cc1ccccc1)OCCCC[C@H](C)O2 | -1.5
C[C@H](CO)N1C[C@H](C)[C@H](CN(C)S(=O)(=O)c2ccc(F)cc2)Oc2ccc(NS(=O)(=O)c3cn(C)cn3)cc2CC1=O | 1.0
C[C@@H]1CN([C@@H](C)CO)C(=O)c2cc(NC(=O)C3CCCCC3)ccc2O[C@@H](C)CCCCO[C@H]1CN(C)Cc1ccncc1 | -0.1
C[C@H]1CN([C@@H](C)CO)C(=O)CCCn2nncc2CO[C@@H]1CN(C)Cc1ccc2c(c1)OCCN2C | -1.8
COc1ccc(NC(=O)N(C)C[C@H]2OCCCC[C@@H](C)Oc3ccc(NS(=O)(=O)c4ccc(C)cc4)cc3C(=O)N([C@@H](C)CO)C[C@H]2C)cc1 | -0.4
COCCOC(=O)N1C(=O)[C@@]2(c3cc(C#Cc4ccc(OC)cc4)ccc31)[C@H](c1ccccc1OCCO)N1[C@H](c3ccccc3)[C@H](c3ccccc3)OC(=O)[C@H]1[C@@H]2C(=O)NC[C@H](O)c1ccccc1 | -1.2
C[C@H]1CN([C@@H](C)CO)C(=O)Cc2cc(NS(=O)(=O)c3ccc(Cl)cc3)ccc2O[C@@H]1CN(C)Cc1ccc(Oc2ccccc2)cc1 | 0.4
C[C@H](CO)N1C[C@H](C)[C@H](CN(C)Cc2ccc(C(F)(F)F)cc2)OCCCC[C@H](C)Oc2ccc(NC(=O)Nc3ccc4c(c3)OCO4)cc2C1=O | 0.3
C[C@@H]1CN([C@H](C)CO)C(=O)c2cc(NS(=O)(=O)c3ccc(F)cc3)ccc2O[C@@H](C)CCCCO[C@H]1CN(C)CC1CCCCC1 | -0.1
C[C@H]1CCCCO[C@@H](CN(C)S(=O)(=O)c2cn(C)cn2)[C@@H](C)CN([C@@H](C)CO)C(=O)c2cc(NS(=O)(=O)c3cccs3)ccc2O1 | -0.4
C[C@H](CO)N1C[C@H](C)[C@@H](CN(C)S(=O)(=O)c2cccs2)Oc2c(NC(=O)Nc3cccc4ccccc34)cccc2C1=O | 0.0
CC(C)NC(=O)Nc1ccc2c(c1)C(=O)N([C@H](C)CO)C[C@H](C)[C@@H](CN(C)Cc1ccncc1)O2 | -0.3

A draw from above in order of molar mass, largest number first:
SMILES | A1 apoptosis 2
COCCOC(=O)N1C(=O)[C@@]2(c3cc(C#Cc4ccc(OC)cc4)ccc31)[C@H](c1ccccc1OCCO)N1[C@H](c3ccccc3)[C@H](c3ccccc3)OC(=O)[C@H]1[C@@H]2C(=O)NC[C@H](O)c1ccccc1 | -1.2
C[C@H](CO)N1C[C@H](C)[C@H](CN(C)S(=O)(=O)c2ccc(F)cc2)Oc2ccc(NS(=O)(=O)c3cn(C)cn3)cc2CC1=O | 1.0
Cc1noc(C)c1NC(=O)Nc1ccc2c(c1)CC(=O)N([C@@H](C)CO)C[C@@H](C)[C@H](CN(C)CC1CC1)O2 | 1.6

(more compounds)
SMILES | A1 apoptosis 2
C[C@@H]1CN([C@H](C)CO)C(=O)Cc2cc(NS(=O)(=O)c3ccccc3)ccc2O[C@H]1CN(C)Cc1ccc(C(=O)Nc2ccccc2N)cc1 | -0.5
COC(=O)CCCCCCC(=O)N/N=C/c1nc[nH]c1C | 0.5
C[C@H]1CN([C@@H](C)CO)C(=O)c2cc(NC(=O)C3CC3)ccc2O[C@H]1CN(C)C(=O)Nc1ccc(F)cc1 | -0.5
Cc1noc(C)c1S(=O)(=O)Nc1ccc2c(c1)C(=O)N([C@H](C)CO)C[C@@H](C)[C@@H](CN(C)C)OCCCC[C@H](C)O2 | -0.2
CC(C)NC(=O)Nc1ccc2c(c1)C(=O)N([C@H](C)CO)C[C@H](C)[C@@H](CN(C)Cc1ccc3c(c1)OCO3)OCCCC[C@H](C)O2 | -0.8
Cc1noc(C)c1NC(=O)N(C)C[C@@H]1Oc2ccc(NC(=O)CCCCCC(=O)Nc3ccccc3N)cc2CC(=O)N([C@H](C)CO)C[C@H]1C | 0.0
CC(C)NC(=O)N(C)C[C@@H]1Oc2ncc(C#Cc3ccc(F)cc3)cc2C(=O)N([C@H](C)CO)C[C@@H]1C | -0.2
Cc1ccc(S(=O)(=O)N(C)C[C@@H]2Oc3ccc(NC(=O)Nc4c(C)noc4C)cc3CC(=O)N([C@@H](C)CO)C[C@H]2C)cc1 | 0.4
C[C@H]1CN([C@@H](C)CO)C(=O)c2cc(NS(C)(=O)=O)ccc2O[C@@H]1CN(C)CC1CC1 | 0.3
C[C@H](CO)N1C[C@H](C)[C@@H](CN(C)CC2CC2)Oc2c(NC(=O)Nc3ccc(C(F)(F)F)cc3)cccc2C1=O | -0.3
C[C@@H]1CCCCO[C@@H](CN(C)Cc2ccc(C(F)(F)F)cc2)[C@@H](C)CN([C@H](C)CO)C(=O)c2cc(NS(=O)(=O)c3cn(C)cn3)ccc2O1 | -0.1
C[C@H](CO)N1C[C@H](C)[C@@H](CN(C)Cc2ccc(-c3ccccc3)cc2)Oc2ccc(NC(=O)NC3CCCCC3)cc2CC1=O | -0.9
Cc1ccc(S(=O)(=O)N(C)C[C@H]2Oc3ccc(NC(=O)Nc4ccc(C(F)(F)F)cc4)cc3C(=O)N([C@@H](C)CO)C[C@@H]2C)cc1 | 1.4
C[C@H](CO)N1C[C@H](C)[C@@H](CN(C)Cc2ccc(Oc3ccccc3)cc2)Oc2ccc(NC(=O)Cn3cnnn3)cc2C1=O | -0.2
C[C@H](CO)N1C[C@H](C)[C@@H](CN(C)S(=O)(=O)c2ccc(Cl)cc2)Oc2ccc(NC(=O)CCCCCC(=O)Nc3ccccc3N)cc2C1=O | -0.5
C[C@@H]1CN([C@@H](C)CO)C(=O)c2cc(NC(=O)c3ccncc3)ccc2O[C@@H](C)CCCCO[C@@H]1CN(C)CC1CCCCC1 | 0.0
CC(C)NC(=O)N(C)C[C@@H]1Oc2ccc(NS(=O)(=O)c3ccc(Cl)cc3)cc2CC(=O)N([C@@H](C)CO)C[C@@H]1C | 0.9
O=C(NO)c1cccc(C(=O)N/N=C/c2ccc(Br)s2)c1 | -1.7
COc1ccc(CN(C)C[C@@H]2Oc3ccc(NC(=O)CCC(F)(F)F)cc3CC(=O)N([C@H](C)CO)C[C@H]2C)cc1 | 0.6
C[C@H]1CN([C@@H](C)CO)C(=O)Cc2cc(NS(=O)(=O)c3ccc(F)cc3)ccc2O[C@H]1CN(C)Cc1ccc(C(=O)O)cc1 | 1.1

5 compounds picked at random from those above:
SMILES | A1 apoptosis 2
COC(=O)CCCCCCC(=O)N/N=C/c1nc[nH]c1C | 0.5
Cc1noc(C)c1S(=O)(=O)Nc1ccc2c(c1)C(=O)N([C@H](C)CO)C[C@@H](C)[C@@H](CN(C)C)OCCCC[C@H](C)O2 | -0.2
C[C@@H]1CN([C@@H](C)CO)C(=O)c2cc(NC(=O)c3ccncc3)ccc2O[C@@H](C)CCCCO[C@@H]1CN(C)CC1CCCCC1 | 0.0
COc1ccc(CN(C)C[C@@H]2Oc3ccc(NC(=O)CCC(F)(F)F)cc3CC(=O)N([C@H](C)CO)C[C@H]2C)cc1 | 0.6
C[C@H]1CN([C@@H](C)CO)C(=O)c2cc(NC(=O)C3CC3)ccc2O[C@H]1CN(C)C(=O)Nc1ccc(F)cc1 | -0.5

An excerpt; count on the stated rates, not on these rows.
